# MLL AF4-AF9 inh = MLL-AF4/AF9 protein interaction inhibition; AlphaScreen, biotin-AF4 peptide binding to FLAG-AF9; inhibition, % at 10 µM; hit rate 0.47% among 350,000;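 active means every replicate reaching a set inhibition limit, whatever the replicate mean, cut at about 25% in these data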;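 further: 0% = plate neutral control median and 100% = total signal loss; the record names both 10 and 1 µM as test concentration; the first replicate is given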
# Target sequence (P42568 whole entry, looked up): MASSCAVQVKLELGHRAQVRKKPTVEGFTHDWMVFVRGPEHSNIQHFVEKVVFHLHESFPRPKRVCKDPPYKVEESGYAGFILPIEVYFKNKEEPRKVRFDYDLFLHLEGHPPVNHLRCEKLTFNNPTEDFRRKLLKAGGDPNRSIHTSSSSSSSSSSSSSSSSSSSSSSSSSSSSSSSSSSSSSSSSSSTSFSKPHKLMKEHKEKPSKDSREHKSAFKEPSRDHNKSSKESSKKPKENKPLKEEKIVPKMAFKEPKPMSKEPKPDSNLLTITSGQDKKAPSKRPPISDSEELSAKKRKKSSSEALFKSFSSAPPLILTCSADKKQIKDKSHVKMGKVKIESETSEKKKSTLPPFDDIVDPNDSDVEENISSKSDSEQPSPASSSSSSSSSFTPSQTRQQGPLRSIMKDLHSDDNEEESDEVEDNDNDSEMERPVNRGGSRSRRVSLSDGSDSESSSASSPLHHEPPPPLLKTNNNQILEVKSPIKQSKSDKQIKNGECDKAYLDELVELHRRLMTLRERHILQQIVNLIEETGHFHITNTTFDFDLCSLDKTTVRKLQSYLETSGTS
# * = called active by the depositor; & = joins results of further samples. This is a subset, so the mix of outcomes need not match the whole.
SMILES,MLL AF4-AF9 inh
C[C@@H]1CN([C@@H](C)CO)C(=O)Cc2cc(NC(=O)NC3CCCCC3)ccc2O[C@H]1CN(C)CC1CC1,6.3
COc1cc(-c2cnc3c(NC(C)=O)cc(-c4ccccc4CN(C)C)cn23)cc(OC)c1OC,6.8
Cc1ccccc1-c1ccc([C@H]2[C@H](CO)N3C(=O)CN(C(=O)NC4CCCC4)C[C@@H]23)cc1,-1.4
CCC(=O)N1[C@@H](CO)[C@@H](c2ccc(-c3ccc(C#N)cc3)cc2)C12CN(C(C)=O)C2,-1.8
CN(C)C(=O)C[C@H]1CC[C@@H]2[C@H](COc3ccc(NC(=O)Nc4cccc(Cl)c4)cc3C(=O)N2C)O1,2.8
C[C@@H]1CCCCO[C@@H](CN(C)C(=O)Nc2ccccc2)[C@@H](C)CN([C@H](C)CO)C(=O)c2cc(NC(=O)CCCCCC(=O)Nc3ccccc3N)ccc2O1,-8.3
COc1cccc(C#Cc2ccc3c(c2)O[C@H](CN(C)C(=O)CN2CCOCC2)[C@@H](C)CN([C@@H](C)CO)S3(=O)=O)c1,-4.4
C[C@H](NC(=O)C[C@@H]1C[C@H]2c3cc(NS(C)(=O)=O)ccc3O[C@H]2[C@H](CO)O1)c1ccccc1,-1.5
Cc1ccc(CNc2ncnc3ccc(-c4ccc(CO)o4)cc23)o1,1.4
COCC(=O)N1CC(=O)N2[C@H](CO)[C@H](c3ccc(C#CC4CC4)cc3)[C@H]2C1,-3.5
COc1ccc(C(C)(C)C)cc1NC(=O)OC[C@@H]1CSCCS(=O)(=O)N1,2.9
C[C@@H]1CN([C@H](C)CO)C(=O)Cc2cc(NS(C)(=O)=O)ccc2O[C@H]1CN(C)S(=O)(=O)c1cccs1,1.7
CCN(CC)C(=O)c1cccc(-c2csc(C(O)c3cccc(Cl)c3)n2)c1 (stereo not given),-0.3
COC(=O)C[C@H]1CC[C@@H]2[C@@H](COc3ccc(NC(=O)Nc4cccc(C#N)c4)cc3C(=O)N2C)O1,1.4
C[C@H](O)C#Cc1ccc2c(c1)O[C@H](CN(C)Cc1ccccn1)[C@H](C)CN([C@@H](C)CO)S2(=O)=O,0.1

# Taken from above for reference:
SMILES,MLL AF4-AF9 inh
COc1ccc(C(C)(C)C)cc1NC(=O)OC[C@@H]1CSCCS(=O)(=O)N1,2.9
C[C@@H]1CN([C@H](C)CO)C(=O)Cc2cc(NS(C)(=O)=O)ccc2O[C@H]1CN(C)S(=O)(=O)c1cccs1,1.7

# Continued.
SMILES,MLL AF4-AF9 inh
CC(C)CC#Cc1ccc([C@H]2[C@@H](CO)N3CCCCN(C(=O)NC4CCCC4)C[C@@H]23)cc1,-13.7
C=CCN1[C@@H](Cc2ccccc2)COCCS1(=O)=O,-25.7
CCCC#Cc1ccc([C@H]2[C@@H](C#N)N(C(=O)C3CCCC3)[C@@H]2CO)cc1,-1.2
C[C@H](CO)N1C[C@H](C)[C@@H](CN(C)S(=O)(=O)c2cn(C)cn2)Oc2ccc(NC(=O)Nc3cccc4ccccc34)cc2CC1=O,-12.7
O=S(=O)(N[C@H]1CC[C@H](CCn2cc(-c3cccc(F)c3)nn2)O[C@@H]1CO)c1ccc(F)cc1,-1.1
CN(C)C(=O)C[C@H]1C[C@H]2c3cc(NC(=O)C4CCOCC4)ccc3O[C@H]2[C@@H](CO)O1,-2.1
CC(C)NC(=O)N1CC[C@@H]2[C@H]1c1cc(-c3ccccc3)ccc1N(C)[C@H]2CO,0.1
O=C1NC[C@H](CCCCN2CCN(Cc3ccccc3)C(=O)C2=O)N(CCc2ccc(O)cc2)C1=O,-7.3
O=C(C1CC1)N1CC2(C1)[C@H](c1ccccc1)[C@@H](CO)N2CC1CCCC1,-2.7
O=C(C[C@H]1C=C[C@@H](NC(=O)c2cccnc2)[C@@H](CO)O1)NCCN1CCCCC1,0.4
O=C(Cc1cccnc1)N1CC2(C1)[C@H](c1ccccc1)[C@@H](CO)N2C(=O)C1CC1,-11.5
CN1C(=O)c2cc(NS(=O)(=O)c3ccc(F)cc3)ccc2OC[C@@H]2O[C@H](CC(=O)NCC(F)(F)F)CC[C@H]21,0.6
Cc1ccc(S(=O)(=O)N[C@@H]2CC[C@H](CCNC(=O)Nc3ccc(Cl)cc3)O[C@@H]2CO)cc1,8.2
C[C@@H]1CN([C@H](C)CO)C(=O)c2cc(NC(=O)NC3CCCCC3)ccc2O[C@@H]1CN(C)C(=O)Nc1ccccc1,-6.7
C[C@H]1CN([C@@H](C)CO)S(=O)(=O)c2ccc(C#Cc3cccc(F)c3)cc2O[C@H]1CN(C)CC1CC1,2.9
CC(C)N1CCCC(C)(C(=O)Nc2ccccc2)C1 (stereo not given),-2.9
Cc1ccc(S(=O)(=O)Nc2ccc3c(c2)CC(=O)N([C@H](C)CO)C[C@@H](C)[C@H](CN(C)Cc2ccncc2)O3)cc1,-0.7
Cc1cc(C(=O)Nc2cccc3c2O[C@H](CN(C)S(=O)(=O)c2ccccc2)[C@@H](C)CN([C@H](C)CO)C3=O)n(C)n1,1.1
Cc1ccc(S(=O)(=O)N(C)C[C@@H]2OCCCC[C@H](C)Oc3ccc(NS(=O)(=O)c4ccc(Cl)cc4)cc3C(=O)N([C@@H](C)CO)C[C@@H]2C)cc1,-1.8
C[C@@H]1CCCCO[C@H](CN(C)CC2CCCCC2)[C@H](C)CN([C@@H](C)CO)C(=O)c2cc(NC(=O)Cc3ccccc3)ccc2O1,6.0
Cc1cccc(-c2ccc([C@@H]3[C@@H](CO)N4C(=O)CN(C(=O)c5cccnc5)C[C@@H]34)cc2)c1,3.9
O=C(C1CCCC1)N1CC(=O)N2[C@H](C1)[C@@H](c1ccc(-c3cccnc3)cc1)[C@@H]2CO,-2.1
CS(=O)(=O)n1c2ccccc2c(=O)n1-c1ccccc1CCl,-2.1
CCCNC(=O)N1C[C@H]2[C@@H](c3ccccc31)[C@@H](CO)N2C(=O)Nc1ccccc1,-0.8
NCC[C@H]1CC[C@H](NC(=O)C2CCCC2)[C@@H](CO)O1,-1.6
COc1ccc2c3c(n(C)c2c1)[C@H](CO)N(C(=O)c1ccc(F)cc1)CC31CCN(CC2CCOCC2)CC1,2.7
COc1cccc(C#Cc2ccc([C@@H]3[C@@H](CO)N4C(=O)CN(C(=O)c5ccccc5)C[C@@H]34)cc2)c1,0.3
C[C@H](CO)N1C[C@H](C)[C@H](CN(C)C(=O)Nc2ccc(C(F)(F)F)cc2)Oc2c(NC(=O)Nc3ccc(C(F)(F)F)cc3)cccc2C1=O,0.5
CC(C)CC#Cc1ccc([C@@H]2[C@H]3CN(C(=O)NC4CCCC4)CCCCN3[C@H]2CO)cc1,-13.0
COC(=O)[C@]12CCCCC=C1N(CCc1ccc(OC)c(OC)c1)C(=O)[C@H](CC(=O)NCc1ccc(C)o1)C2,2.4
C[C@@H]1CN([C@@H](C)CO)C(=O)c2cc(NC(=O)Cc3ccccc3)ccc2O[C@@H](C)CCCCO[C@@H]1CN(C)Cc1ccccc1,5.4
C[C@@H]1CN([C@H](C)CO)C(=O)Cc2cc(NC(=O)Nc3ccc4c(c3)OCO4)ccc2O[C@H]1CN(C)C(=O)Nc1cccc2ccccc12,0.0
Cc1noc(C)c1NC(=O)Nc1ccc2c(c1)C(=O)N([C@H](C)CO)C[C@@H](C)[C@@H](CN(C)C(=O)Nc1ccc(C(F)(F)F)cc1)O2,0.7
CCNC(=O)C[C@H]1CC[C@H](NC(=O)NC2CCCCC2)[C@@H](CO)O1,-0.8
Cc1ccc(S(=O)(=O)N(C)C[C@@H]2Oc3c(NS(=O)(=O)c4cccs4)cccc3C(=O)N([C@@H](C)CO)C[C@@H]2C)cc1,1.1
Cc1ccccc1CN(C)C[C@@H]1OCc2cnnn2CCCC(=O)N([C@H](C)CO)C[C@H]1C,-1.1&-2.8
CCCCCCCCN1C(=O)[C@H](CC(=O)N2CCN(C(=O)c3ccco3)CC2)C[C@@]2(C(=O)OCC)CCCC=C12,7.9
O=C(NCCN1CCOCC1)[C@@]1(CCS(=O)(=O)c2ccccc2)COC(c2ccc(OCCCO)cc2)=N1,-1.5
C[C@H]1CN([C@@H](C)CO)C(=O)Cc2cc(NC(=O)CCC(F)(F)F)ccc2O[C@H]1CN(C)Cc1ccc(Cl)c(Cl)c1,1.4
CC(C)NC(=O)N[C@H]1CC[C@@H](CC(=O)NC2Cc3ccccc3C2)O[C@@H]1CO,-0.6
COc1ccc2c3c(n(C)c2c1)[C@@H](CO)N(C(=O)c1ccncc1)CC31CCN(C(C)=O)CC1,-0.3
CNC(=O)C[C@H]1CC[C@@H]2[C@H](COC[C@H](O)CN2Cc2ccc(C(F)(F)F)cc2)O1,-3.4
C[C@@H]1CN([C@H](C)CO)C(=O)c2cc(NS(=O)(=O)c3ccc(F)cc3)ccc2O[C@@H](C)CCCCO[C@@H]1CN(C)S(=O)(=O)c1ccc(Cl)cc1,-2.2
Cc1ccc(S(=O)(=O)N(C)C[C@@H]2OCCCC[C@@H](C)Oc3ccc(NS(=O)(=O)c4cn(C)cn4)cc3C(=O)N([C@H](C)CO)C[C@@H]2C)cc1,-1.8
C[C@@H]1CN([C@H](C)CO)S(=O)(=O)c2ccc(-c3ccncc3)cc2O[C@H]1CN(C)C(=O)c1cccc(F)c1,1.0
C[C@H]1CN([C@@H](C)CO)C(=O)c2cc(C#CCC3CCCC3)cnc2O[C@H]1CN(C)C(=O)CN(C)C,3.5
C[C@@H]1CCCCO[C@@H](CN(C)C(=O)Cc2ccccc2)[C@H](C)CN([C@@H](C)CO)C(=O)c2cc(N(C)C)ccc2O1,-17.9
COC(=O)C[C@H]1CC[C@@H]2[C@H](COC[C@@H](O)CN2S(=O)(=O)c2ccccc2C)O1,-4.0
C[C@@H]1CN([C@H](C)CO)S(=O)(=O)c2ccc(C#Cc3ccncc3)cc2O[C@H]1CN(C)C(=O)C1CCCCC1,-3.0
CN(C)CC(=O)Nc1ccc2c(c1)[C@H]1C[C@H](CC(=O)NCCN3CCCCC3)O[C@H](CO)[C@H]1O2,3.5
CC[C@]12c3[nH]c4cc(CCC(=O)N(C)C)ccc4c3CCN1C(=O)[C@@H](CC(=O)NCc1ccc(OC)c(OC)c1)C[C@@H]2C(=O)N1CCN(C(=O)c2ccco2)CC1,-1.3
C[C@@H]1CN([C@H](C)CO)C(=O)c2cc(NC(=O)Cc3cn(C)c4ccccc34)ccc2O[C@@H]1CN(C)C,-21.9
CN(C)C(=O)C[C@H]1C=C[C@@H](NC(=O)C2CCOCC2)[C@@H](CO)O1,1.5
C[C@H](CO)N1C[C@H](C)[C@H](CN(C)S(=O)(=O)c2ccccc2)OCCCC[C@H](C)Oc2ccc(NC(=O)c3ccccc3)cc2C1=O,-2.5
C[C@H]1CCCCO[C@@H](CN(C)S(=O)(=O)c2cccs2)[C@@H](C)CN([C@@H](C)CO)C(=O)c2cc(NC(=O)C3CCCCC3)ccc2O1,0.3
CCCNC(=O)N1CC(=O)N2[C@H](CO)[C@H](c3ccc(C#Cc4cccc(F)c4)cc3)[C@H]2C1,-1.9
COc1ccc(CN(C)C[C@@H]2OCCCC[C@H](C)Oc3ccc(NS(=O)(=O)c4ccc(F)cc4)cc3C(=O)N([C@@H](C)CO)C[C@@H]2C)cc1,6.0
C[C@@H]1CN([C@H](C)CO)C(=O)Cc2cc(NC(=O)CCCCCC(=O)Nc3ccccc3N)ccc2O[C@H]1CN(C)Cc1ccncc1,-2.6
CN1OC[C@@H]2CN(C(=O)CCc3ccccc3)[C@H](c3ccc(N4CCCCC4)cc3)C[C@@H]21,5.1
CN(C)CC(=O)N[C@H]1CC[C@@H](CC(=O)O)O[C@H]1CO,-1.0

# 4 entries from above, with each value named.
CC[C@]12c3[nH]c4cc(CCC(=O)N(C)C)ccc4c3CCN1C(=O)[C@@H](CC(=O)NCc1ccc(OC)c(OC)c1)C[C@@H]2C(=O)N1CCN(C(=O)c2ccco2)CC1
  MLL AF4-AF9 inh = -1.3

C[C@@H]1CN([C@H](C)CO)C(=O)c2cc(NC(=O)Cc3cn(C)c4ccccc34)ccc2O[C@@H]1CN(C)C
  MLL AF4-AF9 inh = -21.9

CN(C)C(=O)C[C@H]1C=C[C@@H](NC(=O)C2CCOCC2)[C@@H](CO)O1
  MLL AF4-AF9 inh = 1.5

C[C@H](CO)N1C[C@H](C)[C@H](CN(C)S(=O)(=O)c2ccccc2)OCCCC[C@H](C)Oc2ccc(NC(=O)c3ccccc3)cc2C1=O
  MLL AF4-AF9 inh = -2.5

# Continued:
SMILES,MLL AF4-AF9 inh
CCOC(=O)[C@]12CCC=C1N(Cc1ccc(Cl)cc1Cl)C(=O)[C@H](CC(=O)NCC1CCCCC1)C2,-0.5
C[C@H](CO)N1C[C@H](C)[C@H](CN(C)Cc2cccc(F)c2)Oc2ncc(-c3ccccc3F)cc2C1=O,-0.1
CC(=O)N1[C@@H]2c3ccc(-c4ccccc4)c(=O)n3C[C@H]1[C@H](CO)[C@H]2C(=O)Nc1ccccc1,-1.2
CC(=O)N1[C@H](CO)[C@H](c2ccc(C3=CCCC3)cc2)C12CN(C(=O)C1CC1)C2,0.9
CC(=O)N(C)C[C@H]1Oc2cc(-c3ccc(C#N)cc3)ccc2S(=O)(=O)N([C@@H](C)CO)C[C@@H]1C,-4.2
CO[C@H](CN(C)C(=O)c1cnccn1)[C@H](C)CN([C@H](C)CO)S(=O)(=O)c1ccc(F)cc1,-7.6
CO[C@@H]1CN(C)C(=O)c2cc(NC(=O)Nc3c(C)noc3C)ccc2OC[C@@H](C)N(C)C[C@H]1C,0.7
CC(=O)N1[C@H](CO)[C@@H](c2ccccc2)[C@H]1CN(CC(C)C)C(=O)c1ccccn1,-0.4
O=C(NCc1ccc2c(c1)OCO2)c1[nH]c(C(F)(F)F)nc1-c1ccccc1,-2.0
COc1ccc(S(=O)(=O)Nc2ccc3c(c2)C(=O)N([C@H](C)CO)C[C@H](C)[C@H](CN(C)Cc2ccc(-c4ccccc4)cc2)O3)cc1,-0.2
Cc1cccc(S(=O)(=O)N2CC[C@H]3[C@@H](CO)N(C)c4ccc(Br)cc4[C@H]32)c1,-3.0
